VCAM-1 up – enhancers of VCAM-1 display on endothelial cells, cell-based, plate reader, pooled HUVEC, TNFa stimulus (AID 455). augmentation, % at 5 µM. HUVEC TNFa-induced VCAM-1 immunofluorescence, plate reader; numbers were filed only for top-ranked candidate wells. 10,000 tested, 0.2% active;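 active = a compound raising TNF-alpha-driven VCAM-1 surface staining, with its hit status upheld on visual or statistical review; inactive = the rest, including hits rejected on review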;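 also: 0% = TNFa with vehicle and 100% = strongest image-checked hit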
Proteasome disasm – inhibitors of ATP-driven 26S proteasome dissociation, primary screen, biochemical, bead-based flow cytometry, GFP-tagged proteasome. anti-FLAG beads, GFP-proteasome disassembly. 24,000 tested, 0.2% active. inhibition of disassembly, % (no concentration beside the values). AID 751, 2007;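 active = above 40%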;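 also: plate controls were ATP control with full disassembly for no effect and ATP-gamma-S intact proteasomes for full effect; higher percent means more bead fluorescence retained so stronger block of disassembly; stock transfer was 100 nL into about 10 µL; wells with too few beads may also be inconclusive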
* = called active by the depositor. Only part of the results is shown (hit frequency here may not be typical).

What do the screens show for `CCCCn1c2c(c3ccccc31)CCc1nonc1-2`?
VCAM-1 up: inactive; Proteasome disasm: 0.0

What do the screens show for `CNC(=O)NCCN1CCCC1=O`?
VCAM-1 up: inactive; Proteasome disasm: -0.4

What do the screens show for `COc1cc(C)nc(OCCNC(=O)COc2ccc(Cl)cc2C)n1`?
VCAM-1 up: inactive; Proteasome disasm: -1.0

How did O=C(O)Cn1cc2c(n1)CCCCC2 do in these assays?
Proteasome disasm: -0.7

How did COc1ccc(S(=O)(=O)n2ccnc2)c2cccnc12 do in these assays?
VCAM-1 up: inactive; Proteasome disasm: -1.5

How did CCCNC(=O)c1cc(-c2ccco2)on1 do in these assays?
VCAM-1 up: inactive; Proteasome disasm: -0.3

How did O=C(c1cnn2ccccc12)N1CCCc2ccccc21 do in these assays?
Proteasome disasm: 0.3

Results for NCCN1CCN(CCN)CC1 ?
VCAM-1 up: inactive; Proteasome disasm: 0.4

Results for O=C1CCc2nc3sc4c(c3c(=O)n2N1)CCCC4 ?
VCAM-1 up: inactive; Proteasome disasm: -0.8

How did CCN(CC)C(=O)C1CCCN(Cc2ccc(N(C)C)cc2)C1 (configuration not stated) do in these assays?
VCAM-1 up: inactive; Proteasome disasm: 1.6

Results for CC(C)(C)OC(=O)N1CCC(C(N)=O)CC1 ?
Proteasome disasm: 0.9

How did Cc1csc(NC(=O)CSc2nnc(Cc3cccn3C)n2-c2ccc(F)cc2)n1 do in these assays?
VCAM-1 up: inactive; Proteasome disasm: 0.4

What do the screens show for `CCOC(=O)N1CCC(NC(=O)c2cc3sccc3n2CC)CC1`?
Proteasome disasm: 0.1

Results for CCOc1ccc(CN(CCO)CCO)cc1C(=O)OC ?
Proteasome disasm: 0.3

What do the screens show for `O=C(NCCC1=CCCCC1)C1CCCN(S(=O)(=O)c2cccnc2)C1` (configuration not stated)?
Proteasome disasm: 0.8

The closing 4 compounds of the part before open the next one:
How did Cc1csc(NC(=O)CSc2nnc(Cc3cccn3C)n2-c2ccc(F)cc2)n1 do in these assays?
VCAM-1 up: inactive; Proteasome disasm: 0.4

What do the screens show for `CCOC(=O)N1CCC(NC(=O)c2cc3sccc3n2CC)CC1`?
Proteasome disasm: 0.1

Results for CCOc1ccc(CN(CCO)CCO)cc1C(=O)OC ?
Proteasome disasm: 0.3

What do the screens show for `O=C(NCCC1=CCCCC1)C1CCCN(S(=O)(=O)c2cccnc2)C1` (configuration not stated)?
Proteasome disasm: 0.8

How did O=C(CSc1oc(-c2ccco2)nc1S(=O)(=O)c1ccccc1)NCC1CCCO1 (configuration not stated) do in these assays?
VCAM-1 up: inactive; Proteasome disasm: -0.2

Results for Cc1nc2nc(C)c(CCC(=O)NC(C)c3ccc4c(c3)OCCO4)c(C)n2n1 (configuration not stated) ?
Proteasome disasm: -1.1

What do the screens show for `Cc1nnc(SCC(C)C)[nH]c1=O`?
Proteasome disasm: -1.6

Results for Cn1c(=O)c2c(ncn2CC(O)CNc2ccc(Cl)cc2)n(C)c1=O (configuration not stated) ?
VCAM-1 up: inactive; Proteasome disasm: -2.0

Results for COc1ccc(-c2nnc3ccc(SC)nn23)cc1 ?
Proteasome disasm: 0.7

What do the screens show for `CCC(C)[C@@H](C(=O)Nc1ccc(OC)c(OC)c1)N1Cc2ccccc2C1=O` (some centres not stated)?
Proteasome disasm: 0.5

What do the screens show for `CCCN1Cc2cccc(C(=O)N3CCN(c4cc(Cl)ccc4C)CC3)c2C1=O`?
Proteasome disasm: -1.7

Results for Cc1noc(C)c1S(=O)(=O)NCC(=O)O ?
Proteasome disasm: -1.1

How did C=CCSC1=C(C#N)C(c2ccccc2OCC)CC(=O)N1 (configuration not stated) do in these assays?
VCAM-1 up: inactive; Proteasome disasm: 0.7

How did COc1ccc2c(c1)C1(Nc3ccccc3-c3nc4ccccc4n31)C(=O)N2 (configuration not stated) do in these assays?
VCAM-1 up: inactive; Proteasome disasm: 0.8

What do the screens show for `O=C(CCNS(=O)(=O)c1cccs1)NCc1cccs1`?
Proteasome disasm: 0.1

Results for O=C(c1cc2cc3ccc(Cl)cc3nc2o1)N1CCN(Cc2ccc3c(c2)OCO3)CC1 ?
Proteasome disasm: 0.0

What do the screens show for `CCC(C)(C(=O)NC1CCCCC1)N(Cc1ccco1)C(=O)CC1NC(=O)NC1=O` (configuration not stated)?
Proteasome disasm: -1.9

Results for Cc1cc(N2CCN(C)CC2)nc2ccc(NC(=O)CCC(=O)NCCC3=CCCCC3)cc12 ?
Proteasome disasm: 0.4

What do the screens show for `CCC1CCCCN1CCCNC(=O)CNC(=O)Cn1ccc2ccccc2c1=O` (configuration not stated)?
Proteasome disasm: 25

How did CCOC(=O)N1CCC(N(C(=O)Nc2ccc(CC)cc2)C(C)CC)CC1 (configuration not stated) do in these assays?
Proteasome disasm: -0.4

How did CCCN1Cc2cccc(C(=O)Nc3cc(OC)cc(OC)c3)c2C1=O do in these assays?
Proteasome disasm: 0.8

How did CC1CCCCC1NC(=O)CCCc1nc2ccccc2c(=O)[nH]1 (configuration not stated) do in these assays?
VCAM-1 up: inactive; Proteasome disasm: 0.8

How did NC(=O)C1(N2CCCCC2)CCN(C(=O)c2ccc(-n3cnnn3)cc2)CC1 do in these assays?
Proteasome disasm: 2.9

What do the screens show for `CCCCNC(=O)CS(=O)Cc1nc(-c2cccc(Cl)c2)oc1C` (configuration not stated)?
Proteasome disasm: 31

How did Cc1cc(=O)oc2cc(OCC(=O)OCC(=O)N3CCc4ccccc43)ccc12 do in these assays?
VCAM-1 up: inactive; Proteasome disasm: 2.8

Results for O=C(Nc1cccnc1)c1cc2c(ccc3ccccc32)o1 ?
VCAM-1 up: inactive; Proteasome disasm: -7.9

Results for COc1ccc(CN(C(=O)CNC(=O)c2ccco2)C(C(=O)NC2CCCC2)c2ccco2)cc1 (configuration not stated) ?
VCAM-1 up: inactive; Proteasome disasm: 0.2

How did COc1ccc(C2C(C(=O)c3sc(C)nc3C)=C(O)C(=O)N2CCN2CCOCC2)cc1 (configuration not stated) do in these assays?
VCAM-1 up: inactive; Proteasome disasm: 0.2

Results for CC(=O)Oc1c(S(=O)(=O)c2ccc(C)cc2)c(C)nn1C(C)(C)C ?
Proteasome disasm: -1.1

What do the screens show for `CC1=C(C(=O)OC2CCCCC2)C(c2cccnc2)n2nnnc2N1` (configuration not stated)?
Proteasome disasm: -0.7

How did CCCNC(=O)Cc1ncn[nH]1 do in these assays?
Proteasome disasm: -0.9

Results for Cc1sc(CO)c(Sc2ccccc2)c1C(=O)O ?
Proteasome disasm: 1.0

What do the screens show for `CC(=O)N1CCCc2cc(S(=O)(=O)N3CCN(c4ccccn4)CC3)ccc21`?
Proteasome disasm: 1.2

What do the screens show for `CCC(C)NC(=O)CCS(=O)(=O)c1ccc2c(c1)n(C)c(=O)c(=O)n2C` (configuration not stated)?
Proteasome disasm: 0.6

Results for CC(=O)C1=C(NC(=O)c2ccccc2F)C[C@@H]2[C@H]1C2(C)C ?
VCAM-1 up: inactive; Proteasome disasm: 0.9

What do the screens show for `CCCCN(C)C(=O)c1cn(C)c2ccc(S(=O)(=O)N(C)C)cc2c1=O`?
VCAM-1 up: inactive; Proteasome disasm: -1.2

How did COc1ccccc1CNS(=O)(=O)c1cccc(S(=O)(=O)N2CCOCC2)c1 do in these assays?
VCAM-1 up: inactive; Proteasome disasm: -0.4

How did CC(=O)C(Sc1nc(-c2ccco2)nc2c1c(=O)n(C)c(=O)n2C)C(=O)N(C)C (configuration not stated) do in these assays?
Proteasome disasm: -1.1

How did O=C(Cn1cnc2c(nnn2Cc2ccc(F)cc2)c1=O)N1CCN(c2ccccc2)CC1 do in these assays?
Proteasome disasm: 1.3

How did CC(=O)Nc1ccc(S(=O)(=O)N2CCC(c3nc4ccccc4[nH]3)CC2)cc1 do in these assays?
VCAM-1 up: inactive; Proteasome disasm: -1.2

How did CCC1Oc2ccccc2N(CC(=O)NCCC2=CCCCC2)C1=O (configuration not stated) do in these assays?
Proteasome disasm: 0.6

Results for COC(F)(C(=O)Nc1ccc2c(c1)C(=O)NC2=O)C(F)(F)F (configuration not stated) ?
Proteasome disasm: -0.2

How did CCc1ccc(Nc2oc(C)cc(=O)c2C(C)=O)cc1 do in these assays?
Proteasome disasm: -0.3

What do the screens show for `Cc1cc(Nc2cccc(C(F)(F)F)c2)n2nc(C)nc2n1`?
Proteasome disasm: 1.2

How did CC(C)OC(=O)CSc1nnc(-c2ccc(C(C)(C)C)cc2)n1N do in these assays?
VCAM-1 up: inactive; Proteasome disasm: 2.8

Results for COc1ccc2[nH]c(=O)c(CN(CCO)S(=O)(=O)c3ccc4c(c3)OCCO4)cc2c1 ?
VCAM-1 up: inactive; Proteasome disasm: 0.0

How did COc1ccc(-c2c(C#N)c(SCc3c(C)noc3C)nc3c2C(=O)CC(C)(C)C3)cc1 do in these assays?
Proteasome disasm: 1.2

What do the screens show for `CCc1cccc(C)c1NC(=O)CN1C(=O)c2ccccc2S1(=O)=O`?
Proteasome disasm: -2.7

What do the screens show for `COc1ccc2cnn(-c3ccccc3C)c(=O)c2c1OC`?
VCAM-1 up: inactive; Proteasome disasm: 0.9

What do the screens show for `CSc1nsc(SC)c1C(=O)N1CCN(S(=O)(=O)c2ccc(C)cc2)C1C` (configuration not stated)?
Proteasome disasm: 0.7

How did CCn1cc(C2=NC(C(C)C)CO2)c2ccccc21 (configuration not stated) do in these assays?
Proteasome disasm: 1.0

Results for Cc1cccc(NC(=O)c2cc(NC(=O)c3ccco3)ccc2N2CCCCC2)c1 ?
VCAM-1 up: inactive; Proteasome disasm: 0.0

How did Cc1cc(C)cc(Nc2ccc(C(=O)O)cc2N)c1 do in these assays?
Proteasome disasm: -0.4

How did COc1ccc(-c2nnc(SCC(=O)N3CCOCC3)o2)cc1OC do in these assays?
VCAM-1 up: inactive; Proteasome disasm: 0.0

Results for COc1ccccc1CNC(=O)CCN1C(=O)COc2ccc(C)cc21 ?
Proteasome disasm: 0.5

What do the screens show for `Cc1ccc(-c2noc(CCC(=O)NC3CCCc4ccccc43)n2)cc1` (configuration not stated)?
VCAM-1 up: inactive; Proteasome disasm: 0.1

Results for CCOC(=O)c1cc2sccc2n1CC(=O)Nc1ccc2c(c1)OCCO2 ?
VCAM-1 up: inactive; Proteasome disasm: -0.5

How did COc1cccc(-c2cc(C(=O)Nc3cc(C)on3)no2)c1 do in these assays?
Proteasome disasm: 0.8

Results for CSC1=NCCN1C(=O)c1ccc(S(=O)(=O)N2CCCCC2)cc1 ?
Proteasome disasm: 1.0

What do the screens show for `COC(=O)c1[nH]c2cc(OC)ccc2c1NC(=O)CCN1CCCCC1`?
VCAM-1 up: inactive; Proteasome disasm: 1.0

Results for CCOC(=O)c1nnn(-c2nonc2N)c1CNc1ccc(C)c(Br)c1 ?
Proteasome disasm: -2.4

Results for CC(=O)c1ccc(OCC(O)CN2C(C)(C)CC(O)CC2(C)C)cc1 (configuration not stated) ?
Proteasome disasm: 0.6

What do the screens show for `Cc1cc(NC(=O)CCCN2C(=O)c3cccnc3C2=O)no1`?
VCAM-1 up: 51*; Proteasome disasm: -1.2

Results for CC1c2nc3ccccc3n2C(CC(=O)NCc2ccccn2)C(=O)N1Cc1ccccc1 (configuration not stated) ?
VCAM-1 up: inactive; Proteasome disasm: -2.1

3 structures from above, sorted by heavy-atom count, ascending:
How did COc1cccc(-c2cc(C(=O)Nc3cc(C)on3)no2)c1 do in these assays?
Proteasome disasm: 0.8

How did COc1ccc(-c2nnc(SCC(=O)N3CCOCC3)o2)cc1OC do in these assays?
VCAM-1 up: inactive; Proteasome disasm: 0.0

Results for COc1ccccc1CNC(=O)CCN1C(=O)COc2ccc(C)cc21 ?
Proteasome disasm: 0.5

(next part)
How did O=C(COc1ccc(Cl)cc1)NCc1nnc(SCC(=O)NC2CCCCC2)o1 do in these assays?
Proteasome disasm: -5.1

Results for CCCCSc1nc2c(c(=O)[nH]1)CCC2 ?
Proteasome disasm: 0.1

Results for CCC1Oc2ccc(C)cc2N(CC(=O)NCCCN2CCN(Cc3ccccc3)CC2)C1=O (configuration not stated) ?
Proteasome disasm: -1.5

What do the screens show for `O=C(CCNC(=O)c1ccc(Br)o1)NCc1ccc(Cl)cc1`?
Proteasome disasm: 1.7

What do the screens show for `CCC1Oc2ccc(C)cc2N(CC(=O)NCCCN2CCCCC2CC)C1=O` (configuration not stated)?
VCAM-1 up: inactive; Proteasome disasm: 0.7

What do the screens show for `Cc1ccc(NC(=O)c2ccccc2O)cc1`?
VCAM-1 up: inactive; Proteasome disasm: -1.5

How did O=c1[nH]c2ccccc2n1CCCN1CCN(C(c2ccccc2)c2ccccc2)CC1 do in these assays?
VCAM-1 up: inactive; Proteasome disasm: -0.1

How did COc1cc2c(cc1OC)C(C(=O)NC1CC1)C1c3ccccc3CCN1C2=O (configuration not stated) do in these assays?
Proteasome disasm: 1.0

How did COc1ccc(CNC(=O)c2ccc(N3CCCC3=O)cc2)cc1 do in these assays?
Proteasome disasm: 2.1

How did Cn1cccc1Cc1nnc(SCC(=O)Nc2ccccc2F)n1-c1ccc(F)cc1 do in these assays?
VCAM-1 up: inactive; Proteasome disasm: 6.5

What do the screens show for `O=C(NCc1ccccc1)N1CCN(c2ccc(Cl)c(Cl)c2)CC1`?
Proteasome disasm: -1.1

What do the screens show for `COc1ccc2cc(C#N)c(N3CCN(Cc4nnnn4CCC(C)C)CC3)nc2c1`?
VCAM-1 up: inactive; Proteasome disasm: 4.1

What do the screens show for `COCCNC(=O)C1CC(c2cccc(OC)c2)=NO1` (configuration not stated)?
Proteasome disasm: 0.2

How did CCCOc1ccccc1C1CC(=O)Nc2cc3c(cc21)OCO3 (configuration not stated) do in these assays?
Proteasome disasm: -0.2
